gsp antagonist: antagonizes gsp, the McCune-Albright syndrome mutation | 0.4% of 340,000 active | gsp-mutant cells, cAMP HTRF, 30 min; control for the full effect not named in the record | AID 624288 | Potency, µM (highest dose often 76.9 µM), inactives show at the highest dose activity change, negative = inhibition, actives largely listed as inhibitors; active = falling curve of any shape with a large fitted effect; inconclusive = falling curve, mostly with a smaller effect; inactive = flat or rising curve; cell line not stated here;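 note: intracellular cAMP measured with PDE inhibitor Ro 20-1724 present during compound exposure; potency is the fitted concentration of half-maximal effect; % is set by controls: 0 for no effect and ±100 for the full control effect; nearly all actives have a fitted effect of over 65% in size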
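Cells, 2000/well, grown 16–24 h in DMEM 10% FBS with 0.5 mg/ml G418, then compounds plus […] (300 uM addition stock), 30 min at 37C. cAMP read by HTRF (cAMP-d2 and anti-cAMP antibody-K in lysis buffer) after 30 min RT.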
Menin MLL FP FL: displaces fluorescein MLL peptide from human menin; Fluorescence polarization, fluorescein-MLL peptide displacement from menin; FP activity change, % at 61.4 µM; 290,000 tested, under 10 active; AID 1766; inconclusive = falling polarisation curve, or a change in total fluorescence; inactive = total fluorescence flat and polarisation flat or rising; no compound was filed as active; the % refers to the polarisation; negative = inhibition;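 note: % of control where 0% means no effect; inhibitors lower the polarisation; unlabelled MLL peptide was the positive control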
ClpP mod: qHTS Assay for Activators of ClpP | 1.9% of 340,000 active | AID 651965, 2013 | ATP-dependent Clp protease proteolytic subunit (Bacillus subtilis (strain 168)), P80244 | Potency, µM (doses to about 57.5 µM), without a hit: top-dose activity change, negative = active | purified B. subtilis ClpP, FRET peptide cleavage, 20 min; active = well fitted falling curve with a large enough effect; inconclusive = small, poorly fitted or top-dose-only effect; inactive = no such curve, though single readings can be large or run the other way; note: potency is the fitted concentration of half-maximal effect; the source files actives as falling curves though it sought activators and does not explain the sign; nearly all actives have a fitted effect of over 65% in size; many hits overshoot -100%
Target sequence (P80244 whole entry, looked up): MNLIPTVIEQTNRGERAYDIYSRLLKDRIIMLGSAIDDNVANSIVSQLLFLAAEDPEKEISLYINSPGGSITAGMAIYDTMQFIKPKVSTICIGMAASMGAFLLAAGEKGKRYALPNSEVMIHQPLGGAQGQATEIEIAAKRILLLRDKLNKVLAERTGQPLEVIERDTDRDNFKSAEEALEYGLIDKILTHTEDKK
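Buffer: 100 mM Tris/HCl pH8, 100 mM KCl, 0.05% low protease BSA, 2.5% glycerol, 0.01% Tween-20. ClpP 10 microg/mL final; 20 min RT; delta FRET normalized to ADEP and DMSO controls.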
gsp agonist: gsp mutant agonism. gsp mutant cells, cAMP HTRF, 30 min; control for the full effect not named in the record. Potency, µM (titrated, usually from 76.9 µM), for inactives: at the highest dose activation (cAMP increase), usual class: activators. 0.13% of 340,000 active. AID 624287; active = well fitted activation curve with a large enough effect; inconclusive = small, poorly fitted or top-dose-only effect, or another doubt; inactive = no such curve, though single readings can be large or run the other way; cell line not stated here;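 note: phosphodiesterase inhibitor Ro 20-1724 added with compounds to block cAMP breakdown; potency is the fitted concentration of half-maximal effect; nearly all actives have a fitted effect of over 60% in size; about a fifth of the inactives were tested at one dose only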
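Cells in DMEM/10% FBS with G418 were pretreated with compounds in DMSO plus […] (300 uM stock) for 30 min at 37C. cAMP was measured by HTRF (cAMP-d2 plus anti-cAMP antibody-K) after 30 min at room temperature.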
TRPV1 PAM: human TRPV1 potentiation; TRPV1-expressing cells, Fluo-8 calcium influx, capsaicin EC20 potentiation; host cell line not named in the record; control for the full effect not named in the record; AID 540277; Q8NER1; potentiation, % at 8.33 µM; 0.02% of 320,000 active; active means potentiation above 80%; inconclusive means 30% to 80%; inactive means below 30%; note: 0% is about no effect
Target sequence (Q8NER1 whole entry, looked up): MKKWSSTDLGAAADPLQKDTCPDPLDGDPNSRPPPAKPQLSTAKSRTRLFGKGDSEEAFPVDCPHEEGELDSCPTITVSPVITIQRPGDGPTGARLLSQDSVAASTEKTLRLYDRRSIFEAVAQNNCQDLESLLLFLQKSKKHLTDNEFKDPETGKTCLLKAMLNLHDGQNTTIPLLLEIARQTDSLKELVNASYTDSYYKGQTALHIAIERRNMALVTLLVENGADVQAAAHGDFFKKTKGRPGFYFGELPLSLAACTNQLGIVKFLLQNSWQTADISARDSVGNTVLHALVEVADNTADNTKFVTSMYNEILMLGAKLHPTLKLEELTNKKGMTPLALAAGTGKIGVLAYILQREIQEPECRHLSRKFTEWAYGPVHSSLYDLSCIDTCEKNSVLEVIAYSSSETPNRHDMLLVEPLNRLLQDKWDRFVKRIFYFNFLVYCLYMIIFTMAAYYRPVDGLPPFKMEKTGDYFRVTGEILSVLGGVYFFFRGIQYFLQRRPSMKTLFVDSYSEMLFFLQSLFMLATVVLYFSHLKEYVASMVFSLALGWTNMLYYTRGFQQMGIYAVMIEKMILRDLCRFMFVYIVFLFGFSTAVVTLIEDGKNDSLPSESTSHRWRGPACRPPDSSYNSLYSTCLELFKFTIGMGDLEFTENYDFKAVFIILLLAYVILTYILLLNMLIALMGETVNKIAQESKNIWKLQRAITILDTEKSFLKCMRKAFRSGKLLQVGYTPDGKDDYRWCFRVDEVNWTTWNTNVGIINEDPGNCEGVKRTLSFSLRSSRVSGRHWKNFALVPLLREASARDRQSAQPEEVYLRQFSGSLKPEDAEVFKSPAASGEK
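Fluo-8 calcium influx in TRPV1-expressing cells, kinetic read (ex 480/em 520 nm). Compound added and read 3 min for agonist activity, followed by capsaicin at EC20 final and 2 min further read for enhancement.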
Sfp PPTase inh: blocks B. subtilis Sfp PPTase activity; Q9F4F7; Biochemical Sfp PPTase activity, qHTS; Potency, µM, for the others: max response, negative = inhibition, actives largely listed as inhibitors; 3.5% of 310,000 active; AID 1490; active = well fitted inhibition curve with a large enough effect; inconclusive = small, poorly fitted or top-dose-only effect, or another doubt; inactive = no such curve, though single readings can be large or run the other way;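 note: the enzyme is Sfp with the accession as filed and its product quenches rhodamine fluorescence; potency is the fitted concentration of half-maximal effect; 0% = enzyme reaction without inhibitor and -100% = no enzyme wells; top concentration of the series not given in the record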
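Reaction rates are the 30-min fluorescence difference (ex 525, em 598 nm) in wells containing 15 nM Sfp, 5 uM rhodamine-CoA and 12.5 uM BHQ-2-YbbR at pH 7.6 with 10 mM MgCl2.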
CtBP-E1A blk: inhibitors of CtBP/E1A interaction; AlphaScreen GST-E1A/His-CtBP binding, 1536-well; hits give low values; control for the full effect not named in the record; activity change, % (test concentration not listed); 0.49% of 340,000 active; AID 651724; in the data active means activity change below about -65%; inconclusive means about -30% to -65%; inactive means above about -30%; note: % is set by controls: 0 for no effect and ±100 for the full control effect; compound concentration not given in the record
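In 5 uL wells, 23 nL compound meets equimolar GST-E1A and His-CtBP (5X stock 125 nM each) for 2 h, 37 °C. Beads (5X, 50 ug/mL) then 1 h, 37 °C, dark.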
* hit, by the source's call; ? = inconclusive; · = no result given; & = joins results of further samples; [ ] = dose if it differs, or a comment.

SMILES | gsp antagonist | Menin MLL FP FL | ClpP mod | gsp agonist | TRPV1 PAM | Sfp PPTase inh | CtBP-E1A blk
NC(=O)NC(=O)CSc1nnc(-c2ccc(Cl)cc2)n1CC1CCCO1 (stereo not drawn) | 5% | 7.2 | -2.9% | -42%[inhibitor] | 6 | 10% | ·
CCOc1cc(/C=N/NC(=O)NN(C)c2ncc(C(F)(F)F)cc2Cl)ccc1O | -18% | 0.7 | · | -37%[15.4 µM] | 5 | 15% | 5
COCCN(C(=O)CCC(=O)Nc1cc(C)on1)C(C(=O)NC(C)(C)C)c1cccc(OC)c1OC (stereo not drawn) | · | 0.3 | · | -1%[15.4 µM] | -5 | 5% | -16
CN(Cc1cnn(Cc2ccccc2)c1)C(=O)CN=C1NS(=O)(=O)c2ccccc21 | -8% | · | -3.2% | -27% | 7 | · | ·
Cc1cccc(-c2cc3c(nn2)-c2ccccc2C3=O)c1 | -9% | 3.4 | -3.0% | ? | 5 | -13% | -14
COc1cc(NC(=O)/C=C/c2ccccc2)c(C(=O)O)cc1OC | -8% | 2.1 | -0.3% | ? | 10 | -3% | 6
CCSc1nc(N)c2c3c(sc2n1)CCC3 | 14% | -0.2 | -0.7% | 14% | 6 | 4% | -1
Cc1c(C(=O)O)sc2[nH]c(=O)n(Cc3ccccc3)c(=O)c12 | 17% | -2.5 | · | ? | 10 | 14% | 8
CCCn1c(/N=C/c2c[nH]c3ccccc23)nc2ccccc21 | -6% | 4.2 | -7.0% | -40%[inhibitor] | -13 | 1% | 4
C=CCC(C(=O)OC)(C(=O)OC)c1ccc([N+](=O)[O-])cn1 | 4% | 6.6 | -0.3% | -25% | 6 | 23% | -23
CCCCC(=O)Nc1nnc(S(=O)(=O)N2CCCCCC2)s1 | 12% | · | 0.9%&-2.2% | 8% | 6 | 12% | 3
Cc1nn(CC(=O)NCC2CCCO2)c(=O)c2cc3ccccc3n12 (stereo not drawn) | 6% | -1.5 | 3.8% | ? | 3 | 26% | ·
O=C(CCN1CCOCC1)Nc1cc(C(=O)Nc2ccc(Cl)cc2)ccc1N1CC2CC(C1)c1cccc(=O)n1C2 (stereo not drawn) | -28% | 0.7 | -1.5% | -9% | 17 | 4% | 0
O=C(/C=C/c1ccc(Cl)cc1)c1cccnc1 | 22% | -0.2 | 1.1% | -7% | -4 | ? | 0
CC(SCc1ccccc1)C(=O)Nc1ccc(F)cc1 (stereo not drawn) | -5% | 1.9 | -1.3% | -30% | -5 | -11% | 3
Cc1ccc(NC(=S)N2CCN(Cc3ccccc3)CC2)c(C)c1 | -16% | -2.4 | 1.9% | 1% | -3 | -6% | -1
C[N+]1(CC2COC3(CCCCC3)O2)CCCCC1 (stereo not drawn) | 0% | 0.6 | · | 6%[15.4 µM] | 14 | -8% | -10
O=C(Cc1cccc(NC(=O)C2CCCN(C(=O)C3CC3)C2)c1)Nc1cccc(C(=O)N2CCCCC2)c1 (stereo not drawn) | 4% | · | 0.3% | · | · | · | -22
O=C(CSc1nc(=O)n2cc(Cl)ccc2n1)Nc1ccc2c(c1)OCO2 | 9% | · | -1.5% | ? | 4 | · | -4
CCOc1ccc(C2C(C(=O)NC)=C(C)Nc3nc4ccccc4n32)cc1OC (stereo not drawn) | ? | · | -6.3% | 9% | · | · | 1
Cc1cccc(C(=O)Nc2scc(CC(C)C)c2C(=O)O)c1 | -14% | 1.4 | 0.3% | 5% | -24 | -6% | 2
Cc1c(NC(=O)c2cc(-c3ccc(Cl)c(Cl)c3)on2)c(=O)n(-c2ccccc2)n1C | -3% | 15 | -1.3% | 0%[15.4 µM] | 0 | 4% | -5
Cc1nn(CC(=O)NCc2ccccc2Cl)c(C)c1[N+](=O)[O-] | 4% | -1.3 | 0.9% | -26% | -28 | 6% | 8
O=C(C1CCCO1)N1CCN(S(=O)(=O)c2cc(C(F)(F)F)ccc2Cl)CC1 (stereo not drawn) | 8% | · | 1.5% | -4% | 17 | · | 12
Cc1cc(F)ccc1NCC(=O)Nc1ccc(Br)cc1C | -9% | 9.0 | -1.2% | -24% | 5 | -2% | -15
SMILES | gsp antagonist | Menin MLL FP FL | ClpP mod | gsp agonist | TRPV1 PAM | Sfp PPTase inh | CtBP-E1A blk
COc1ccccc1N1CCN(C(=O)COc2ccc(S(=O)(=O)NC(C)C)cc2)CC1 | 9% | 6.4 | · | 13% | 3 | -1% | 8
Cc1c(NC(=O)C(C)Oc2cccc(F)c2)c(=O)n(-c2ccccc2)n1C (stereo not drawn) | 10% | · | -3.2% | -311%[inhibitor] | · | · | -13
COC(=O)N1C(=O)[C@](CC(C)C)(c2ccccc2)N1C(=O)OC | 20% | -1.4 | -0.7% | · | 9 | -18% | 9
COc1ccc(OC)c2sc(N3CCN(C(=O)c4ccc5ncsc5c4)CC3)nc12 | -22% | · | · | 1%[15.4 µM] | -12 | · | -17
Cc1ccc(N2C(=O)N(CC(=O)Nc3ccccc3C)C(=O)C2C)cc1 (stereo not drawn) | 2% | · | -2.5% | -4% | 4 | 14% | -7
COc1ccc(OC)c2c(N3CCN(C)CC3)cc(C(F)(F)F)nc12 | -2% | 3.8 | -4.8% | -4% | -11 | 4% | 0
O=C(c1ccc(CS(=O)c2ccc(Br)cc2)o1)N1CCN(C2CCCCC2)CC1 (stereo not drawn) | · | · | 0.0% | 29% | · | · | 4
CS(=O)(=O)c1nc([N+](=O)[O-])nn1CCCc1ccccc1 | 18% | · | · | 3%[15.4 µM] | · | · | -2
N#CCSc1nc(-c2ccccc2)cs1 | 2% | -1.2 | -0.4% | -48%[inhibitor] | -5 | -12% | 11
Cc1ccc(C)c(NS(=O)(=O)c2ccc3oc(=O)ccc3c2)c1 | -11% | 2.5 | 1.3% | 0% | -3 | 13% | ·
C(=N\N(c1ccccc1)c1ccccc1)/c1ccc2c(c1)OCO2 | 1% | -2.0 | -13% | -26% | · | 5% | 0
N#C/C(C(N)=O)=C1/SC=C(c2ccccc2)N1c1ccccc1 | -3% | 5.5 | -1.5% | 12%[15.4 µM] | -3 | 13% | -4
O=C(c1ccccc1F)N1C(=O)c2cccc3cccc1c23 | -9% | 1.0 | 147% | 3% | -12 | 7% | 9
Cc1cc(NC(=O)CSc2ncn[nH]2)no1 | 8% | 3.0 | -1.2% | -44%[inhibitor] | 3 | 14% | 9
CC(=O)N1CCC(N(CCN2CCOCC2)C(=S)Nc2ccccc2C)CC1 | 7% | 6.6 | -0.5% | 22% | 4 | 1% | 3
CC(C)(C)OC(=O)[C@H](Cc1ccccc1)NC(=O)c1nc[nH]c1C(=O)NCC(=O)OCc1ccccc1 | 9% | 3.4 | 1.5% | 19% | -1 | 14% | -3
N#Cc1c(Cl)nc2c(c1C#N)CCCC2 | 5% | 4.3 | -7.1% | -22%[15.4 µM] | 8 | -5% | -17
CC(C)CN(C(=O)c1ccc(Br)o1)C1CCS(=O)(=O)C1 (stereo not drawn) | 1% | · | -1.8% | 3%[15.4 µM] | 6 | · | -2
NC(=O)c1cc(S(=O)(=O)N2CCCC2)ccc1OCc1ccc(F)cc1 | -9% | 0.2 | -5.2% | -34%[inhibitor] | 7 | 10% | -4
CCc1ccc(N=C2N=C(N)c3ccccc32)cc1 | 0% | 1.4 | 0.7% | 8% | -2 | 8% | 13
Cc1noc(C)c1C(=O)NCCCN1CCCC1=O | 12% | 2.3 | -2.3% | ? | ? | 2% | 16
CCN(Cc1cc2cc(OC)ccc2[nH]c1=O)C(=O)c1ccncc1 | 0% | 2.9 | ? | 19% | -6 | 19% | 5
COc1cc(/C=N/n2c(=S)[nH]nc(C)c2=O)cc([N+](=O)[O-])c1O | -7% | 1.0 | · | ? | 16 | 14µM* | -2
CC(C)c1ccc(OCC(O)CN2CCCC2)cc1 (stereo not drawn) | 18% | -0.3 | · | ? | -5 | 3% | 8
CCc1nnc(NC(=O)C2CCCN(c3nc4ccccc4s3)C2)s1 (stereo not drawn) | -4% | 2.2 | -0.5% | 27% | 28 | 12% | 6
SMILES | gsp antagonist | Menin MLL FP FL | ClpP mod | gsp agonist | TRPV1 PAM | Sfp PPTase inh | CtBP-E1A blk
Cc1ccn2c(C(=O)CSc3ccccc3)c(C)nc2c1 | -7% | 1.9 | -0.8% | -12% | -13 | 20% | -5
CCC(=O)Nc1cccc(NC(=O)c2ccccc2Br)c1 | -9% | 2.4 | -0.3% | 19% | -14 | 27% | 1
COc1cc(/C=N/NC(=O)c2c(-c3c(Cl)cccc3Cl)noc2C)ccc1OCC(N)=O | -13% | 4.8 | -4.7% | 26% | 13 | 7% | -3
Cc1cc(C)cc(NC(=O)Cn2c(SCc3cc(C)ccc3C)nc3ccncc32)c1 | · | 3.2 | · | · | -3 | -5% | ·
C=CCNc1nc2ccccc2nc1NS(=O)(=O)c1ccc(F)cc1 | -5% | -0.3 | 3.9% | 1% | -6 | -7% | ·
Cc1ccc(C2=NS(=O)(=O)N(C)C(C(=O)Nc3ccc(F)cc3F)=C2)cc1 | -13% | -0.3 | -1.0% | ? | -15 | -1% | -1
COC(=O)c1sc(N)c(C(=O)OC)c1Cn1ncc(Cl)c(Cl)c1=O | -1% | 1.0 | · | 8% | -29 | -14% | -1

Single records, as listed above. Values in the order: gsp antagonist, Menin MLL FP FL, ClpP mod, gsp agonist, TRPV1 PAM, Sfp PPTase inh, CtBP-E1A blk
Listed for COc1cc(/C=N/NC(=O)c2c(-c3c(Cl)cccc3Cl)noc2C)ccc1OCC(N)=O = -13%, 4.8, -4.7%, 26%, 13, 7%, -3
Listed for COC(=O)c1sc(N)c(C(=O)OC)c1Cn1ncc(Cl)c(Cl)c1=O = -1%, 1.0, ·, 8%, -29, -14%, -1
Listed for CCC(=O)Nc1cccc(NC(=O)c2ccccc2Br)c1 = -9%, 2.4, -0.3%, 19%, -14, 27%, 1

A different layout for two compounds above.
SMILES	gsp antagonist	Menin MLL FP FL	ClpP mod	gsp agonist	TRPV1 PAM	Sfp PPTase inh	CtBP-E1A blk
C=CCC(C(=O)OC)(C(=O)OC)c1ccc([N+](=O)[O-])cn1	4%	6.6	-0.3%	-25%	6	23%	-23
COc1cc(NC(=O)/C=C/c2ccccc2)c(C(=O)O)cc1OC	-8%	2.1	-0.3%	?	10	-3%	6

Screening results (PubChem)
